D2 PAM – human D2 receptor positive allosteric modulation. P14416. DiscoveRx D2 beta-arrestin cells, luminescence, 90 min; 100% = 57 uM dopamine signal. potentiation, % (concentration not given with the values). 360,000 tested, 0.23% active. AID 624464; active = potentiation of 50% or more; inconclusive = 30% to 50%; inactive = 30% or less;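 further: compound concentration not given in the record; tested on top of an EC20 dose of dopamine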
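D2 cells co-treated with compound plus 50 nM dopamine (EC20) for 90 min at 37 deg C to detect potentiation. Beta-arrestin recruitment was read as enzyme-fragment luminescence after 1 h at ambient temperature. Full response was set by 57 uM dopamine.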
Six1-Eya2 blk – Six1/Eya2 interaction inhibition. AlphaScreen GST-Six1/His-Eya2 binding, biochemical; active compounds read low; control for the full effect not named in the record. activity change, % (no concentration beside the values). 360,000 tested, 0.56% active; in the data active = activity change below about -65%; inconclusive = about -30% to -65%; inactive = above about -30%; further: on the % scale 0 is the no-effect control and ±100 the full control effect
Target sequence (O00167 whole entry, looked up): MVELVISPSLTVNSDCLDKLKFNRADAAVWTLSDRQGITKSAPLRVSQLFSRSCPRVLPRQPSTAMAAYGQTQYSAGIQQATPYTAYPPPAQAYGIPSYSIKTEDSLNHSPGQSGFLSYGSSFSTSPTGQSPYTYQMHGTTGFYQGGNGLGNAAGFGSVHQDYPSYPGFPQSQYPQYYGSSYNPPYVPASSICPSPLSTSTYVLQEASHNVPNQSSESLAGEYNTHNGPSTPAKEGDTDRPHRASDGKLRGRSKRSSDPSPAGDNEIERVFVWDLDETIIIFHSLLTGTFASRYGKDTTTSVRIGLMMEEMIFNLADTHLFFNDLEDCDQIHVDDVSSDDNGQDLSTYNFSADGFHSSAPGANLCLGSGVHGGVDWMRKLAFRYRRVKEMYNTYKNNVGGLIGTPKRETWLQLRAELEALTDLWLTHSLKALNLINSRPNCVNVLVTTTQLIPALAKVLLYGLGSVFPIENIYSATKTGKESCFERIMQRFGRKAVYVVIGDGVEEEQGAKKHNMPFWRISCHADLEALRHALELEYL
Target sequence (Q15475 whole entry, looked up): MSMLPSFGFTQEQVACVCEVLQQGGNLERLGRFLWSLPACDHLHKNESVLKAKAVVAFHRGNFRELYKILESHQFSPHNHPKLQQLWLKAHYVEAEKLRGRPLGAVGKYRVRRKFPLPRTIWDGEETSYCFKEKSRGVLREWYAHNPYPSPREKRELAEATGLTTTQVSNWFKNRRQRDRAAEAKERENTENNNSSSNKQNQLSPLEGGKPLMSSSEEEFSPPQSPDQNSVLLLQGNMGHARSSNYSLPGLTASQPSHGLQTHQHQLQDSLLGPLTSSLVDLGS
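Homogeneous AlphaScreen proximity assay pairing GST-Six1 with His-tagged Eya2 (added as 5X mix: 250 nM and 500 nM) in 50 mM Tris pH 8.0, 300 mM NaCl, 1 mM TCEP. Glutathione donor and nickel acceptor beads; 1 h, 37 °C, dark.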
D2 agonist – human D2 receptor agonism in beta-arrestin assay. P14416. DiscoveRx PathHunter D2 beta-arrestin, luminescence, 90 min; 100% = 57 uM dopamine signal. activation, % (test concentration not listed). 360,000 tested, 0.084% active. AID 624465; in the data active = activation above about 40%; inconclusive = about 15% to 40%; inactive = below about 15%; further: compound concentration not given in the record; the text of the record calls up to 30% inactive
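DiscoveRx PathHunter D2 beta-arrestin cells (2,100/well) attached overnight, then compound-stimulated 90 min at 37 C in HBSS/10 mM HEPES/0.1% Tween-20 buffer; beta-galactosidase complementation read by luminescence after 1 h at ambient temperature. Dopamine 57 uM final (EC100) as control.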
CtBP-E1A blk – inhibitors of CtBP/E1A interaction. AlphaScreen GST-E1A/His-CtBP binding, 1536-well; active compounds read low; control for the full effect not named in the record. activity change, % (concentration not given with the values). 340,000 tested, 0.49% active. AID 651724; in the data active means activity change below about -65%; inconclusive means about -30% to -65%; inactive means above about -30%; further: on the % scale 0 is the no-effect control and ±100 the full control effect
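In 5 uL wells, 23 nL compound meets equimolar GST-E1A and His-CtBP (5X stock 125 nM each) for 2 h, 37 °C. Beads (5X, 50 ug/mL) then 1 h, 37 °C, dark.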
gsp agonist – activates gsp, the McCune-Albright syndrome mutation. gsp mutant cells, cAMP HTRF, 30 min; control for the full effect not named in the record. Potency, µM (top dose mostly 76.9 µM), inactives show at the top dose activation (cAMP increase), usual class: activators. 340,000 tested, 0.13% active; active = well fitted activation curve with a large enough effect; inconclusive = small, poorly fitted or top-dose-only effect, or another doubt; inactive = no such curve, though single readings can be large or run the other way; cell line not stated here;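 further: phosphodiesterase inhibitor Ro 20-1724 added with compounds to block cAMP breakdown; potency means the concentration at half of the fitted maximal effect; nearly all actives have a fitted effect of over 60% in size; about a fifth of the inactives were tested at one dose only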
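Cells stably selected in G418 were plated at 2000/well, grown 16-24 hr, then given compounds in DMSO with the PDE inhibitor […] (300 uM solution added) for 30 min at 37C; cAMP was read by HTRF.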
gsp antagonist – gsp mutant antagonism; gsp-mutant cells, cAMP HTRF, 30 min; control for the full effect not named in the record; Potency, µM (doses to about 76.9 µM), for the others: top-dose activity change, negative = inhibition, hits mostly inhibitors; 340,000 tested, 0.4% active; AID 624288; active = falling curve of any shape with a large fitted effect; inconclusive = falling curve, mostly with a smaller effect; inactive = flat or rising curve; cell line not stated here;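 further: intracellular cAMP measured with PDE inhibitor Ro 20-1724 present during compound exposure; potency means the concentration at half of the fitted maximal effect; on the % scale 0 is the no-effect control and ±100 the full control effect; nearly all actives have a fitted effect of over 65% in size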
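Cells in G418 medium, seeded 16-24 h, 37C; buffer exchange to DPBS + 1 mM CaCl2, 0.5 mM MgCl2, 0.05% BSA; cpds in DMSO + […] (300 uM stock), 30 min 37C; HTRF cAMP detection.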
An asterisk follows results filed as active; ? = inconclusive; . = not tested or not shown; [ ] = another dose, or the depositor's remark. Not a hit list. About 1.4% of those tested had a hit in this group.

SMILES	D2 PAM	Six1-Eya2 blk	D2 agonist	CtBP-E1A blk	gsp agonist	gsp antagonist
O=c1c2ccccc2[nH]c(=S)n1CCN1CCCCC1	-16	-13	-4.4	-2	?	-1%
C[N+](C)(C)C[C@H](O)CC(=O)[O-]	-33	4	-1.4	7	.	7%
Cc1ccc(C(c2nnnn2CS(=O)(=O)c2ccc(C)cc2)N2CCC(C)CC2)cc1 (configuration not stated)	-4	5	0.2	9	20%	?
COc1ccc(S(=O)(=O)N2CCN(Cc3cc4c(cc3Br)OCCO4)CC2)cc1	-7	-1	0.4	-21	-46%[inhibitor]	-2%
COc1ccc(-n2nnc3c(SCC(=O)OCc4ccccc4)ncnc32)cc1	6	5	-0.4	0	0%	-7%
CCN(c1ccc(C)c(C)c1)S(=O)(=O)c1c(C)[nH]c(=O)[nH]c1=O	-11	-1	1.7	5	26%	?
CCOC(=O)c1c(C)n(C)c2ccc(OCC(O)CN3CCN(C)CC3)cc12 (configuration not stated)	-9	-13	-6.7	-2	25%	0%
CC(OC(=O)C(C)Oc1ccccc1)C(=O)Nc1ccc(S(=O)(=O)N2CCCCC2)cc1 (configuration not stated)	-1	-1	5.8	-8	-5%	-13%
C=CCn1c(SCC(=O)NCCOC)nnc1-c1cc2c(s1)CCC(CC)C2 (configuration not stated)	0	-1	0.2	5	8%	-14%
CCCCN(C(=O)C1=CC=CN2CCS(=O)(=O)N=C12)c1ccccc1	-11	9	-1.7	0	2%	11%
CN(C(=O)C(=O)c1cn(CC(=O)N2CCCC2)c2ccccc12)C1CCCCC1	10	2	-2.2	-5	-57%[inhibitor]	1%
CCC(=O)Nc1ccc(C(=O)COC(=O)c2sc(C)nc2C)cc1	-18	-1	-2.9	-2	-7%[15.4 µM]	-1%
Cc1cccc(-c2cccc(NC(=O)C3CCCN(Cc4cccnc4)C3)c2)c1 (configuration not stated)	-32	-1	0.3	0	-3%	-13%
Cc1n[nH]c(=O)c2c(NC(=O)COC(=O)c3ncc(Cl)c(Cl)c3Cl)oc(C)c12	2	-6	6.3	1	?	6%
O=C(Cc1ccccc1)Nc1ccc(C(=O)NCC2COc3ccccc3O2)cc1 (configuration not stated)	-4	-4	-6.0	-24	2%[15.4 µM]	-4%
FC(F)(F)c1nnc(N2CCN(c3ccc(Cl)cc3)CC2)s1	-17	6	-1.2	.	9%	4%
Cc1cccc(NC(=O)CSc2nnc(CNC(=O)c3ccco3)n2C)c1C	-9	3	-1.9	9	12%[15.4 µM]	-1%
Cc1cc(C)nc(NS(=O)(=O)c2ccc(NC(=O)c3cc(=O)c4ccccc4o3)cc2)n1	-2	-4	-0.1	-13	?	-3%
O=C(O)COc1ccc(/C=N/NC(=O)/C(=C/C=C/c2ccccc2)NC(=O)c2ccccc2)cc1	-4	-8	-4.5	-2	3%	1%
O=C(NCc1cccc(Cl)c1)c1ccc2c(c1)OCO2	-10	1	3.2	-10	7%	-3%
S=C(NCc1ccccc1)NCc1ccco1	0	-11	-5.8	-30	?	7%
CCOC(=O)c1c(NC(=O)CN(C)C)sc(C(=O)N(CC)CC)c1C	-11	-3	-4.1	3	8%	-5%
COC(=O)C1=C(C)NC(=O)NC1c1ccc([N+](=O)[O-])o1 (configuration not stated)	5	1	-4.5	9	-9%	9%
Cc1cc(C)c2c(CN3CCN(Cc4ccccc4)CC3)cc(=O)oc2c1	-14	-9	-1.3	-3	-11%	-7%
Cc1cc(C)cc(NC(=O)COC(=O)c2cccc(S(=O)(=O)N3CCCCC3)c2)c1	-7	-4	-3.7	.	?	-7%
CCc1ccc(OCC(O)CNC(C)(C)C)cc1 (configuration not stated)	-20	2	-0.8	3	?	7%
CCn1c(CC(=O)Nc2ccccc2F)nnc1SCC(=O)N1CCOCC1	8	3	-3.9	1	-30%[inhibitor]	-1%
COc1ccc(CCCNC(=O)C2(C)Cc3c(-c4ccc(NC(C)=O)cc4)ccnc3O2)cc1 (configuration not stated)	-9	-13	9.5	-4	.	.
Cc1cc(C)n(Cc2cccc(C(=O)N/N=C/c3cccnc3)c2)n1	-4	0	-2.4	-17	0%	1%
Cc1cccc(C)c1NC(=O)COC(=O)COc1ccc2c(C)cc(=O)oc2c1	-5	19	-3.5	0	13%	4%
CC(=O)c1c(C)[nH]c(C(=O)OCC(=O)Nc2cccc(S(=O)(=O)N3CCCC3)c2)c1C	-3	-26	-2.3	-8	-71%[inhibitor]	32µM*
COc1ccccc1/C=C/C=N/n1c(-c2cc(-c3ccccc3)n[nH]2)n[nH]c1=S	-16	-29	-0.6	0	-5%[15.4 µM]	-18%
Cc1cc(C)n(CC(=O)n2c3c(c4ccccc42)CCCC3)n1	-2	4	-3.8	-2	18%	-2%
Cc1cccc(C(=O)OCC(=O)Nc2ccccc2C(=O)NC2CC2)c1	1	3	-9.9	-17	12%	-5%
Cc1noc(C)c1CSc1nnc(-c2ccccc2F)n1CCc1ccccc1	-22	-7	-0.2	0	6%	-11%
COc1ccc(S(=O)(=O)N2CCCCCC2)cc1NC(=O)CC1OC(=O)c2ccccc21 (configuration not stated)	-9	-7	-8.2	0	13%[15.4 µM]	-4%
COc1ccccc1NC(=O)C(C)OC(=O)c1cc2ccccc2[nH]1 (configuration not stated)	-3	-3	-2.6	.	-8%	35µM*
O=S(=O)(NCc1ccc(Cl)cc1)NCc1ccc(Cl)cc1	-7	3	-4.7	.	?	2%
CN(Cc1cnn(C)c1)C(=O)C1CCC(=O)N(Cc2cccc(C(F)(F)F)c2)C1 (configuration not stated)	10	12	-2.1	4	21%	3%
CC1(C)NC(=O)N(CC(O)COc2cc3ccccc3cc2C(=O)N2CCCCC2)C1=O (configuration not stated)	-7	0	-1.3	0	-2%	-5%
CCOC(=O)C1=C(C)NC(=O)CC1c1cc2c(cc1Br)OCO2 (configuration not stated)	-6	-8	-1.6	-2	-30%[inhibitor]	10%
COc1cccc(/C(C)=N/NC(=O)Cc2c(C)[nH][nH]c2=O)c1	-4	-1	-2.9	.	17%	3%
COC(=O)CSc1cc(C)nc(NC(C)=O)n1	-2	0	-3.7	-1	-45%[inhibitor]	8%
CCCc1nc2oc3c(NCCN4CCOCC4)ncnc3c2c2c1CCCC2	1	18	-4.3	27	5%	-7%
COc1cccc(NC(=O)N2CCC(NC(=O)C(Cc3ccccc3F)NC(C)=O)CC2)c1 (configuration not stated)	-7	7	-6.7	5	-2%	3%
Cc1cccc(C)c1NC(=O)Cn1nc(-c2ccc(Cl)s2)ccc1=O	-8	2	1.6	4	?	6%
CC(=O)c1ccc(-c2c(C)cc3oc(=O)cc(-c4ccccc4)c3c2C)cc1	.	-5	-1.2	0	.	-19%
O=C(COC(=O)c1cccnc1Cl)NCCc1ccccc1	-2	4	7.6	2	?	14%
COc1ccc(CCC(=O)OCC(=O)c2ccc(C)cc2)cc1	-6	31	-2.9	20	2%[15.4 µM]	9%
COc1cccc(C2CC(c3c(-c4ccccc4)c4cc(Cl)ccc4[nH]c3=O)=NN2S(C)(=O)=O)c1OC (configuration not stated)	-15	-14	-2.1	-8	6%	-1%
CCC(C(=O)NC1CCCCCC1)n1nc(C)c2c(C)n(-c3ccccc3)nc2c1=O (configuration not stated)	-7	3	-3.8	8	0%	-13%
COc1ccc(S(=O)(=O)N2CCCC(C(=O)Nc3cccc(C(C)=O)c3)C2)cc1 (configuration not stated)	-6	-12	-2.4	-5	-2%	-2%
Cc1ccc(F)c(NC(=O)CCc2ccccc2)c1	-17	8	-2.4	10	-40%[inhibitor]	-8%
O=S(=O)(c1ccccc1Cl)N1CCC(O)(c2cccnc2)CC1	-13	3	-1.2	-15	-6%[15.4 µM]	7%
COc1ccccc1NS(=O)(=O)c1cc(NC(=O)c2ccc3c(c2)OCCO3)ccc1C	0	-16	-0.2	-17	25%	-25%
N=c1c2c(-c3ccccc3)c(-c3ccccc3)n(Cc3ccccc3)c2ncn1CCCn1ccnc1	-32	-6	-5.6	-1	-12%	-1%
O=C(CCC(=O)Nc1ccccc1)NNC(=O)c1cccs1	3	4	2.0	3	15%	7%
Cc1ccccc1NC(=O)c1cccc(NC(=O)CCC(=O)O)c1	-6	1	-1.1	.	23%[15.4 µM]	-5%
COc1ccc(Cl)cc1C(=O)NNC(=O)c1n[nH]c2ccccc12	13	0	-2.1	.	40%	-2%
CCOc1ccccc1N1CCN(C(=O)c2cccc(-c3ccc(O)cc3)c2)CC1	-11	?	-2.6	-11	-3%[15.4 µM]	?
Following part:
SMILES	D2 PAM	Six1-Eya2 blk	D2 agonist	CtBP-E1A blk	gsp agonist	gsp antagonist
COc1ccc(S(=O)(=O)c2snnc2C)cc1	-10	1	-1.1	.	-16%	5%
CCOC(=O)c1c(NC(=O)C2C3C=CC(CC3)C2C(=O)O)sc(C)c1CC (configuration not stated)	2	2	-1.4	1	?	5%
C#CCn1cccc(C(=O)Nc2ccc(OC)cc2)c1=O	-5	0	-3.5	.	18%	-1%
Cc1cc(C)n2nc(CC(=O)NNC(=O)COc3cccc(C)c3C)nc2n1	-1	4	2.0	.	-47%[inhibitor]	9%
O=C(Cn1cnc2c(cnn2-c2ccccc2)c1=O)NCCc1ccccc1	-5	3	-2.9	1	-2%	12%
Cc1cc(C)c(S(=O)(=O)NCCc2ccncc2)c(C)c1	-6	12	3.1	1	-50%[inhibitor]	-4%
CC(=O)C1(O)C(C)CC2C3CC=C4CC(O)CCC4(C)C3CCC21C (configuration not stated)	-3	-2	-2.7	9	?	7%
COC(=O)N/N=C/c1ccc(-c2ccccc2Cl)o1	1	-23	-2.7	6	-2%[15.4 µM]	-19%
COc1ccc([N+](=O)[O-])cc1NC(=O)CSc1ccc2ccccc2c1	-12	0	-3.3	-7	8%[15.4 µM]	-17%
Cc1cc2nccnc2cc1C	2	-1	3.7	7	8%	-9%

Record cards (already shown). Values in the order: D2 PAM | Six1-Eya2 blk | D2 agonist | CtBP-E1A blk | gsp agonist | gsp antagonist
Entry for `CCOC(=O)c1c(NC(=O)C2C3C=CC(CC3)C2C(=O)O)sc(C)c1CC` (configuration not stated) = 2 | 2 | -1.4 | 1 | ? | 5%
Entry for `C#CCn1cccc(C(=O)Nc2ccc(OC)cc2)c1=O` = -5 | 0 | -3.5 | . | 18% | -1%

Copied from the list:
Result for Cc1cc(C)c(S(=O)(=O)NCCc2ccncc2)c(C)c1 in gsp antagonist: -4%
Result for COc1ccc([N+](=O)[O-])cc1NC(=O)CSc1ccc2ccccc2c1 in Six1-Eya2 blk: 0
Result for COC(=O)N/N=C/c1ccc(-c2ccccc2Cl)o1 in D2 agonist: -2.7
Result for Cc1cc(C)n2nc(CC(=O)NNC(=O)COc3cccc(C)c3C)nc2n1 in gsp agonist: -47%[inhibitor]
Result for Cc1cc2nccnc2cc1C in D2 agonist: 3.7
Result for CC(=O)C1(O)C(C)CC2C3CC=C4CC(O)CCC4(C)C3CCC21C (configuration not stated) in Six1-Eya2 blk: -2

Screening data: PubChem BioAssay, National Center for Advancing Translational Sciences (NCATS)
